Bfl-1 A1 inh: inhibitors of the anti-apoptotic protein A1, read as caspase activation; 330,000 compounds, 0.066% hits; caspase activation, % (test concentration not listed); MEF A1-2A-BIM cells, Caspase-Glo 3/7 luminescence, 3 h; percent of clofoctol response, vehicle zero;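 active means over half of replicate activation scores above 10%, or exactly half above 10 with the replicate mean above 10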;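 further: wells of about 30 µL received 50 nL stock; many hits fall short of the cut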
rRNA inh HTS: inhibits bacterial ribosomal RNA function over humanized ribosomes. E. coli WT GFP vs humanized-ribosome RFP mutants, fluorescence, 24 h; hits give low values; DMSO median 0, no signal -100. GFP signal change (wild-type ribosome), % (test concentration not listed). 350,000 compounds, 1.6% hits. AID 720706;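 active means significant combined selectivity score with lowered wild-type GFP, culture density cut under 30%, mutant RFP and density less affected; inactive means any of these conditions unmet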; further: one replicate is shown; some compounds called inactive have numbers as strong as hits
UCH37 DUB inh: blocks the human deubiquitinase UCH37 | Q9Y5K5 | purified proteasome/UCH37, Ub-AMC cleavage fluorescence | inhibition, % (no concentration beside the values) | 330,000 compounds, 0.33% hits | AID 588478;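 active means mean of two replicates above 20%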;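 further: 0% = compound-free wells with enzyme and 100% = wells lacking proteasome; stock transfer was 100 nL into about 20 µL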
Target sequence (Q9Y5K5 whole entry, looked up): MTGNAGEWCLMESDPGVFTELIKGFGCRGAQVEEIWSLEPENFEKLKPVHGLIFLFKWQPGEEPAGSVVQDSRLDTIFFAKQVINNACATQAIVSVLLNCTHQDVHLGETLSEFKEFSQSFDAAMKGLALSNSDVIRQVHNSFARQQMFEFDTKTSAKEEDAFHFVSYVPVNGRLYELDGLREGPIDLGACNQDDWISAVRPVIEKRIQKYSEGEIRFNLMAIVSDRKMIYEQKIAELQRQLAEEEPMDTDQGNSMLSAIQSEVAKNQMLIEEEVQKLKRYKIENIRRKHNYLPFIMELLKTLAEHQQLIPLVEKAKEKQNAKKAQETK
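Reagent: Ub-AMC substrate; assay system: Proteasome-associated human UCH37 deubiquitinase; controls: no-proteasome and no-compound wells; read-out: % inhibition of Ub-AMC cleavage fluorescence; timing: 30 min preincubation with enzyme, 25 min cleavage at room temperature; signal: AMC fluorescence from Ub-AMC cleavage, excitation 355 nm, emission 460 nm; buffer or medium: Tris-HCl pH 7.4 plus ovalbumin, ATP-MgCl2, DTT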
AF4-AF9 inh: blocks AF4 peptide binding to human AF9; AID 651704; 350,000 compounds, 0.47% hits; AlphaScreen, biotin-AF4 peptide binding to FLAG-AF9; inhibition, % at 10 µM;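 active means every replicate reaching a set inhibition limit, whatever the replicate mean, cut at about 25% in these data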;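 further: 0% = plate neutral control median and 100% = total signal loss; the record names both 10 and 1 µM as test concentration; the first replicate is given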
Target sequence (P42568 whole entry, looked up): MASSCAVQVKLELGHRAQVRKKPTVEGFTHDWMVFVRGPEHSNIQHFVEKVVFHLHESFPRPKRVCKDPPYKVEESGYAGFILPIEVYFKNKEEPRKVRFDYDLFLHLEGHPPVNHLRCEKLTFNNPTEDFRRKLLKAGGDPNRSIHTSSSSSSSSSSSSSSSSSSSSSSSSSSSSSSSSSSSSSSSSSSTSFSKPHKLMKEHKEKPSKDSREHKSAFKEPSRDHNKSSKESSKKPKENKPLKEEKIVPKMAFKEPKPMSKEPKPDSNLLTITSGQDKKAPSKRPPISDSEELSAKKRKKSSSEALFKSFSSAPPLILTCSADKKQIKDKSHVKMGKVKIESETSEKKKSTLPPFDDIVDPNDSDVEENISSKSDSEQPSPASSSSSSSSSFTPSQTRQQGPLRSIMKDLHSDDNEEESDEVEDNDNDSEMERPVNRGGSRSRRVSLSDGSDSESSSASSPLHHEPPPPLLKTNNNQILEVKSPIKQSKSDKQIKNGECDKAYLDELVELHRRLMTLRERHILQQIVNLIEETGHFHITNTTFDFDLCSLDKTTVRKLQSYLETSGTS
Beta apoptosis: beta cell apoptosis inhibition; protection from apoptosis, % (test concentration not listed); INS-1E cytokine-induced death, ATP luminescence, 48 h; percent of positive-control rescue, neutral wells zero; AID 435005; 300,000 compounds, 0.8% hits;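 active means all replicates at 75% or more, or half of them and the mean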;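 further: 0% = cytokine-treated negative control wells and 100% = positive control rescue; higher means more ATP so stronger rescue from cytokine killing; wells of about 40 µL received 100 nL stock; the first replicate is given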
Ecoli growth: inhibitors of Escherichia coli growth | AID 1053175 | OD600 absorbance (concentration not given with the values) | 330,000 compounds, 0.21% hits | OD600, 23 h; hits give low values;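 active means OD600 absorbance below the run mean of sample wells minus 3.6 SD, in any replicate, cut at about 0.56 in these data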;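 further: stock transfer was 300 nL into about 60 µL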
FGF22 binding: binders of recombinant human FGF22 by thermal shift; SYPRO orange fluorescence; percent of sucrose octasulfate shift, DMSO zero; calls only at 9.99 µM; 340,000 compounds, 1.5% hits; AID 651658;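 active means melting point raised past a set limit in the mean and every replicate; three in four hits are not shown here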
Target sequence (Q9HCT0 whole entry, looked up): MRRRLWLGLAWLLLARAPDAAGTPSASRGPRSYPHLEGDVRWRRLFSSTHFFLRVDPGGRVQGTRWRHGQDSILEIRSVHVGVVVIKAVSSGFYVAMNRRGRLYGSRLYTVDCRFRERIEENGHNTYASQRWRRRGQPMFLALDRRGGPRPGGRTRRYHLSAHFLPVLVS
T cruzi inh: blocks replication of Trypanosoma cruzi | T. cruzi beta-gal in NIH3T3, luminescence, 90 h | inhibition, % (test concentration not listed) | 300,000 compounds, 1.4% hits;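 active means mean inhibition across valid replicates above about 55%, limit read from the data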;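 further: signal also drops with host cell toxicity which is not excluded here; 0% = plate median of DMSO wells and 100% = zero luminescence signal; higher percent means less beta-gal luminescence so fewer parasites; stock transfer was 50 nL into about 50 µL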
rRNA inh HTS OD600: second read-out of rRNA inh HTS, no call of its own (marks repeat the call); OD600 change, %; measured here: OD600 growth;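 optical density of the mix in the first replicate; 0 = DMSO median and -100 = no signal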
rRNA inh HTS RFP: further read-out of rRNA inh HTS, marked with its call; RFP signal change, %; measured here: RFP humanized mutant strains;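 first replicate; 0 = DMSO median and -100 = no signal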
* marks the source's active call; other numbers are inactive results; i = inactive; nt = not tested or not shown. Some of the compounds tested. The share of hits here may be higher or lower than overall.

Preview (2 entries):
SMILES	Bfl-1 A1 inh	rRNA inh HTS	rRNA inh HTS OD600	rRNA inh HTS RFP	UCH37 DUB inh	AF4-AF9 inh	Beta apoptosis	Ecoli growth	FGF22 binding	T cruzi inh
Cc1ccc(C(=O)Nc2ccc(C(=O)NCC3CCCO3)cc2)cc1 (centres undefined)	-0.4	13	14	-0.2	1.6	-0.6	10	0.7	i	-5
Cc1c(Cl)cccc1NC(=O)CC1Oc2ccccc2NC1=O (centres undefined)	0.2	11	12	0.3	-3.7	0.4	6	0.69	i	-9

All compounds of this part, repeating the preview:
SMILES	Bfl-1 A1 inh	rRNA inh HTS	rRNA inh HTS OD600	rRNA inh HTS RFP	UCH37 DUB inh	AF4-AF9 inh	Beta apoptosis	Ecoli growth	FGF22 binding	T cruzi inh
Cc1ccc(C(=O)Nc2ccc(C(=O)NCC3CCCO3)cc2)cc1 (centres undefined)	-0.4	13	14	-0.2	1.6	-0.6	10	0.7	i	-5
Cc1c(Cl)cccc1NC(=O)CC1Oc2ccccc2NC1=O (centres undefined)	0.2	11	12	0.3	-3.7	0.4	6	0.69	i	-9
CCOC(=O)C1=C(C)OC(N)=C(C#N)C1c1ccc(C)o1 (centres undefined)	0.1	nt	nt	nt	4.7	nt	-9	0.67	nt	4
Cc1cc2ccccc2n1CCNC(=O)C1CCCC1	0.4	nt	nt	nt	0.1	nt	0	0.71	nt	11
O=C(CN(C(=O)CNC(=O)c1cccs1)c1cccc(F)c1)NC1CCCCC1	0.1	-28	-42	-8.1	-0.1	-0.1	1	0.63	i	1
O=C(COC(=O)C1CCN(c2ccc(C(F)(F)F)cn2)CC1)Nc1ncc(Cl)cc1Cl	-0.2	-8	3	2.1	1.9	0.8	6	0.62	i	nt
COc1ccc(-c2nnc3sc(CN4C(=O)c5ccccc5C4=O)nn23)cc1	0.5	nt	nt	nt	-1.4	nt	-6	0.72	nt	-13
Cc1ccc(CCNC(=O)C2CCCN(c3nc4ccccc4o3)C2)cc1 (centres undefined)	-1.1	nt	nt	nt	1.6	nt	-3	0.68	nt	3
CCOC(=O)/C(=C/c1c(C)n(C)c2ccc([N+](=O)[O-])cc12)C(C)=O	-0.6	14	8	0.9	4.7	-0.9	-3	0.69	i	-25
O=C(COc1ccc2ccccc2c1)N1CCCC1	-0.6	nt	nt	nt	0.3	nt	-3	0.71	nt	8
COc1ccc(CCN(CC(=O)NC2CCCC2)C(=O)CCC(=O)Nc2cc(C)on2)cc1OC	-0.4	nt	nt	nt	0.8	nt	2	0.67	nt	0
NS(=O)(=O)c1cccc(NC(=O)Cc2ccc(Cl)c(Cl)c2)c1	0.6	-27	-29	-4.4	3.1	-0.1	-4	0.69	i	-14
COc1ccc(C(=O)NNC(=O)Cc2nc3ccccc3n2C)cc1	0.8	-2	0	1.2	1.2	1.7	-5	0.71	i	nt
Cc1ccc(C(=O)Oc2cc(-c3ccccc3)no2)cc1	0.2	nt	nt	nt	4.3	nt	-4	0.74	nt	0
NC(=O)c1c(N)sc(=S)n1-c1ccccc1	0.5	nt	nt	nt	10	nt	-9	0.68	nt	-16
Cc1ccccc1C#N	0.3	3	-4	-1.0	5.1	nt	5	0.66	i	nt
COc1ccc(NC(=O)CN(c2ccc(F)cc2)S(=O)(=O)c2ccccc2)c(OC)c1	0.5	-24	-9	1.0	2.4	-2.8	1	0.67	i	-5
Fc1ccccc1NC(=S)NCCc1cccc(Cl)c1	-0.5	-25	-48	-6.5	-1.9	1.2	1	0.67	i	nt
CC(=O)N1CCN(c2ccc(NC(=O)c3ccc(Cl)cc3)cc2)CC1	1.6	-1	4	2.1	nt	-2.0	-4	nt	i	-10
CCOc1cccc(-c2c(C(=O)N/N=C(\C)c3cccnc3)nnn2-c2nonc2N)c1	0.6	-1	6	3.9	nt	-3.3	nt	nt	i	-4
O=C(Nc1ccc2c(c1)OCO2)C1CCCN(S(=O)(=O)Cc2ccccc2)C1 (centres undefined)	0.3	nt	nt	nt	4.0	nt	4	0.7	nt	9
CC(=O)Nc1ccc(S(=O)(=O)NCc2ccc(C)n2C)cc1	-0.2	8	18	3.5	3.9	1.3	-2	0.66	i	2
C=CC(C)n1c(Br)nc2c1c(=O)[nH]c(=O)n2C (centres undefined)	0.2	nt	nt	nt	1.0	nt	-1	0.67	nt	-3
CCN1C(=O)/C(=C\N2CCCc3ccccc32)SC1=S	-0.3	nt	nt	nt	2.1	nt	12	nt	nt	2
COc1ccc(S(=O)(=O)N2C(=O)/C(=C3\SC(N)=NC3=O)c3ccccc32)cc1	0.8	7	11	-4.8	0.9	-31	-7	0.68	i	5
O=C(Cn1nnc(-c2ccccc2F)n1)OCC(=O)c1ccccc1	0.2	15	17	6.2	5.0	-1.9	-8	0.67	i	-6
N=c1n(CCN2CCOCC2)c2ccccc2n1CC(O)COc1ccccc1 (centres undefined)	1.3	nt	nt	nt	0.4	nt	-3	0.68	nt	-3
CSc1cccc(NC(=O)CNS(=O)(=O)c2ccccc2)c1	0.8	-1	3	1.4	5.2	0.6	-13	0.62	i	4
COc1ccc(CNC(=O)COc2ccc(C(=O)c3ccc(F)cc3)cc2)cc1	-3.2	8	3	1.0	1.9	5.3	-3	0.67	i	-42
Cc1cccc(C)c1OC(=O)CN1C(=O)c2ccccc2C1=O	-0.2	6	17	0.7	3.7	0.1	nt	0.73	i	-12
NC(=O)CSc1nc2ccccc2n1Cc1ccccc1F	1.8	nt	nt	nt	4.9	nt	1	0.69	nt	-18
CS(=O)(=O)Nc1ccccc1C(=O)OCC(=O)NC1CC1	-0.6	11	14	-2.7	-0.6	-0.4	0	0.7	i	nt
CC1CCCN(CC(O)COc2ccc(S(=O)(=O)N3CCCC3)cc2[N+](=O)[O-])C1 (centres undefined)	1.8	11	5	-1.3	2.2	2.9	-6	0.68	i	nt
COc1cc(OC)c(CN2CCN(c3ccc(F)cc3)CC2)cc1Br	0.4	nt	nt	nt	1.5	nt	-9	0.7	nt	21
CC(=O)Nc1ccc(N2C(=O)CCC2=O)cc1C	-0.6	nt	nt	nt	1.0	nt	nt	0.72	nt	-7
Cc1cc2cc(CNC(=O)Nc3ccccc3)ccc2[nH]1	-6.2	15	19	9.9	4.0	0.4	-12	0.67	i	0
Cc1c(C(C)(C)O)[nH]c2ccc(C#N)cc12	-0.1	-22	-24	-6.4	0.2	0.5	-3	0.64	i	-15
Cc1ccc(C)c(OCC(=O)N(Cc2nnc(-c3ccccc3Cl)o2)C2CC2)c1	0.5	-9	-40	-1.6	1.7	-3.7	1	0.7	i	11
CSc1ccccc1NC(=O)c1cc(-c2cccnc2)nc2ccc(Br)cc12	0.2	8	5	5.0	2.8	-4.3	14	0.7	i	69*
CC1CCN(C(=O)CCc2nnc3ccc(NCc4ccco4)nn23)CC1	-1.3	8	10	2.6	4.8	-1.2	nt	0.7	i	-15
Cc1cc(C(=O)NCC(=O)OCC(=O)NCC2CCCO2)ccc1[N+](=O)[O-] (centres undefined)	0.4	10	7	3.4	1.2	-1.3	-5	0.65	i	nt
O=C(COc1cc(F)ccc1[N+](=O)[O-])Nc1cc(S(=O)(=O)N2CCCC2)ccc1Cl	nt	-2	8	-1.1	0.8	-9.1	nt	0.71	nt	nt
CCCNC(=O)c1ccc2c(=O)c(O)c(-c3ccc(OC)cc3)[nH]c2c1	0.1	nt	nt	nt	-26	nt	0	0.73	nt	-32
N=c1n(N)c2ccccc2n1CC(=O)c1ccc(Br)cc1	1.0	-5	-6	-0.4	3.0	-0.1	nt	0.62	i	1
COc1ccc(C(C(=O)NC(C)(C)C)N(C(=O)CCC(=O)Nc2ccccn2)C2CCCCC2)cc1 (centres undefined)	-1.7	0	4	0.9	1.8	0.3	-4	0.7	i	18
O=C(Nc1ccc2c(c1)OCO2)OCc1ccccc1	1.0	-11	-23	-9.4	1.3	7.2	-1	0.67	i	1
Nc1ccc(-c2nc3cc(N)ccc3n2CCO)cc1	0.3	10	10	-0.8	i	-4.2	0	0.72	i	-6
COc1ccccc1CNc1ccc2c(c1)CCC2	-0.4	3	-1	0.0	-2.9	1.4	17	0.71	i	55*
CN1CCCC1CCNc1ccc2sc3ccccc3c(=O)c2c1 (centres undefined)	-1.3	-1	-19	-8.8	-1.4	26*	-5	0.66	i	34
CCOC(=O)c1c(C)[nH]c(C(=O)COc2ccc3ccc(=O)oc3c2)c1C	0.5	2	9	-3.2	-57	0.2	8	0.71	i	nt
O=[N+]([O-])c1cccc2nc(-c3ccccc3)c(-c3ccccc3)nc12	0.0	-8	-10	1.2	5.3	19	5	0.69	i	31
Cc1cc2ncn(S(=O)(=O)c3ccc(S(=O)(=O)N4CCOCC4)cc3)c2cc1C	-0.3	nt	nt	nt	2.9	nt	-4	0.7	nt	-6
CC1CCCC(NC(=O)CCCn2c(=O)[nH]c3cc(Cl)ccc3c2=O)C1C (centres undefined)	0.6	nt	nt	nt	1.7	nt	-7	0.73	nt	-3
O=C(NC(=S)Nc1cc([N+](=O)[O-])ccc1O)c1ccc2c(c1)OCO2	0.1	-27	-28	-6.5	2.8	-0.9	23	0.71	i	20
Cc1ccc(N(CN2CCCC2=O)C(=O)c2ccccc2)cc1	1.1	12	10	2.2	3.5	-0.3	-2	0.68	i	-11
CSc1ccc(C(=S)N2CCN(Cc3ccccc3)CC2)cc1	0.8	nt	nt	nt	2.6	nt	-5	0.7	nt	13
Cc1ccn2c(=O)nc(SCC(=O)NCc3ccccc3Cl)nc2c1	-0.3	12	11	4.3	-3.1	-3.4	nt	0.67	i	-2
CCNC(=S)N/N=C/c1ccc(F)cc1	-1.0	-1	10	0.6	nt	1.5	-1	nt	i	-5
C=C(C)COc1ccc(-c2[nH]ncc2Oc2ccccc2OCC)c(O)c1	1.7	nt	nt	nt	1.2	nt	39	0.67	nt	nt
Cc1c(NC(=O)c2ccc(S(=O)(=O)Nc3ccccc3F)cc2)c(=O)n(-c2ccccc2)n1C	0.3	4	14	2.4	7.6	0.8	-20	0.72	i	nt
Continued.
SMILES	Bfl-1 A1 inh	rRNA inh HTS	rRNA inh HTS OD600	rRNA inh HTS RFP	UCH37 DUB inh	AF4-AF9 inh	Beta apoptosis	Ecoli growth	FGF22 binding	T cruzi inh
CCOc1cc(C(=O)NCc2ccncc2)cc(OCC)c1OCC	1.3	nt	nt	nt	2.3	nt	-3	0.7	nt	-9
NC(=O)c1ccc(NCCCN2CCOCC2)c([N+](=O)[O-])c1	1.0	nt	nt	nt	5.1	nt	-10	0.69	nt	-6
C#CCSc1nnc(-c2cc3c(C(F)(F)F)nn(C)c3s2)n1C	-0.5	nt	nt	nt	0.2	nt	-2	0.66	nt	-13
Cc1cccc(CN2CCc3c([nH]c4ccccc34)C2)c1	-0.4	9	0	0.8	nt	4.7	7	nt	i	16
Cc1ccc2[nH]c3c(=O)n4c(nc3c2c1)SCC4	0.9	-4	-6	-3.7	-37	-0.1	nt	0.72	i	-2
O=C(c1ccccc1CCc1ccccc1)N1CCN(c2ccccn2)CC1	-0.1	nt	nt	nt	-0.9	nt	3	0.7	nt	8
CC1CC(C)CN(C(=O)Cn2ncc3c([nH]c4ccccc43)c2=O)C1 (centres undefined)	1.5	3	5	-2.6	-1.9	-5.0	0	0.69	i	13
COc1ccc(CN(CC(=O)NC2CCCCC2)C(=O)CCC(=O)Nc2nccs2)cc1	1.4	21	22	3.8	1.8	-1.6	-2	0.7	i	7

Screens from PubChem BioAssay.
